Compound activity deposited in PubChem BioAssay by Center for Chemical Genomics, University of Michigan.
CDC25B-CDK2 inh – primary biochemical HTRF screen for blockers of M-phase inducer phosphatase 2 binding to CDK2/cyclin A | 94,000 tested, 0.72% active | P30305+P24941 | z-score (no concentration beside the values) | HTRF CDC25B-CDK2/CyclinA binding, anti-His/anti-Flag; hits give high values;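 note: score is relative to mean and SD of negative controls; strong numbers were not always called active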
TAR Tat displ – TAR RNA-Tat peptide displacers, HIV-1, primary screen, biochemical, FRET, FAM/TAMRA-labeled Tat. 100,000 tested, 0.6% active. z-score (no concentration beside the values). HIV-1 TAR RNA, Tat peptide displacement FRET; hits give high values;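 note: score is relative to mean and SD of negative controls; some compounds called inactive have numbers as strong as hits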
Active calls of the source: *.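 Rule for the calls: active = z-score from 3 up in half or more of its runs; inactive = the rest.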 Not a hit list, and some 0.87% of all compounds hit somewhere here.

`Cn1c(O)c(C2=Nc3ccccc3SC(c3ccc4c(c3)OCO4)C2)c(=O)n(C)c1=O` (centres undefined) gave CDC25B-CDK2 inh -2.05 and TAR Tat displ 0.78.
For CC(C)[C@@H]1CC[C@@H](C)C[C@H]1OC(=O)c1ccccc1 the results were TAR Tat displ 2.28.
Screening c1ccc(-n2cnnc2)nc1 returned CDC25B-CDK2 inh -1.92.
Cc1ccccc1Cn1c(C)c(C2CCN(S(=O)(=O)c3cn(C)cn3)CC2)c2ccccc21 was read as TAR Tat displ 1.07.
For Cc1nc2c(sc3nc4c(cc32)COC(C)(C)C4)c(=O)n1CC1CCCO1 (centres undefined) the results were CDC25B-CDK2 inh -0.65.
For Clc1cccc(-c2noc3ncnc(NCCC4=CCCCC4)c23)c1 the results were CDC25B-CDK2 inh -1.91 and TAR Tat displ 2.56.
Screening Cn1nc(-c2ccccc2)c(-c2ccccc2)c(C(=O)OCc2ccco2)c1=O returned CDC25B-CDK2 inh -0.13 and TAR Tat displ 0.77.
For CC1CN2C(=O)Cc3c(S(=O)(=O)N4CCN(c5ccccc5)CC4)ccc(c32)S1 (centres undefined) the results were TAR Tat displ 0.05.
`O=C1Sc2ccccc2N/C1=C/c1ccccc1` gave CDC25B-CDK2 inh 1.94 and TAR Tat displ -0.6.
For COC(=O)C1=C(OC(=O)c2ccco2)c2ccccc2S(=O)(=O)N1C the results were CDC25B-CDK2 inh -0.43 and TAR Tat displ -0.62.
For OC1(c2cccc(F)c2)CCCCC1 the results were CDC25B-CDK2 inh -2.02.
Screening O=C1CSC(c2ccccn2)N1c1ccc(Cl)cn1 (centres undefined) returned CDC25B-CDK2 inh -1.03.
CC1CN(C(=O)CCCC(=O)N2CC(C)OC(C)C2)CC(C)O1 (centres undefined) was read as CDC25B-CDK2 inh -1.23.
For CCCN(CCC)S(=O)(=O)c1cccc(-c2cn3cccc(C)c3n2)c1 the results were CDC25B-CDK2 inh -1.1 and TAR Tat displ 2.23.
For COc1cccc(C(=O)OCc2cc(=O)n3ccsc3n2)c1 the results were TAR Tat displ -0.14.
Screening O=C(NCc1ccc2c(c1)OCO2)C1CC(=O)N(c2cccc(-c3noc(C4CCC4)n3)c2)C1 (centres undefined) returned TAR Tat displ 0.36.
COC(=O)CC(=O)NC(C)c1c(-n2cccc2)sc2c1CCCC2 (centres undefined) was read as CDC25B-CDK2 inh -1.29 and TAR Tat displ 1.42.
O=C1CC(C(=O)Nc2ccccc2Cl)n2c(nc3ccccc32)N1 (centres undefined) was read as CDC25B-CDK2 inh 0.44 and TAR Tat displ 0.89.
`CN(C)S(=O)(=O)c1ccc2c(c1)ncn2CCCC(=O)NC1CCCC1` gave TAR Tat displ 0.81.
NC(=O)CSC1=Nc2ccccc2C2=NC(CC(=O)NCc3cccs3)C(=O)N12 (centres undefined) was read as CDC25B-CDK2 inh -1.58.

Quoted at random: seven compounds from above, in no set order.
Screening O=C(NCc1ccc2c(c1)OCO2)C1CC(=O)N(c2cccc(-c3noc(C4CCC4)n3)c2)C1 (centres undefined) returned TAR Tat displ 0.36.
COC(=O)CC(=O)NC(C)c1c(-n2cccc2)sc2c1CCCC2 (centres undefined) was read as CDC25B-CDK2 inh -1.29 and TAR Tat displ 1.42.
Screening O=C1CSC(c2ccccn2)N1c1ccc(Cl)cn1 (centres undefined) returned CDC25B-CDK2 inh -1.03.
For Cc1nc2c(sc3nc4c(cc32)COC(C)(C)C4)c(=O)n1CC1CCCO1 (centres undefined) the results were CDC25B-CDK2 inh -0.65.
For CC(C)[C@@H]1CC[C@@H](C)C[C@H]1OC(=O)c1ccccc1 the results were TAR Tat displ 2.28.
For CC1CN2C(=O)Cc3c(S(=O)(=O)N4CCN(c5ccccc5)CC4)ccc(c32)S1 (centres undefined) the results were TAR Tat displ 0.05.
`Cn1c(O)c(C2=Nc3ccccc3SC(c3ccc4c(c3)OCO4)C2)c(=O)n(C)c1=O` (centres undefined) gave CDC25B-CDK2 inh -2.05 and TAR Tat displ 0.78.

Continued.
Screening COc1ccc(-c2noc(-c3cc4c(CO)cnc(C)c4oc3=O)n2)cc1 returned CDC25B-CDK2 inh -3.03 and TAR Tat displ 1.33.
CC1CCCCC1NC(=O)C1c2cccn2CC(=O)N1Cc1cccs1 (centres undefined) was read as CDC25B-CDK2 inh -1.35 and TAR Tat displ 1.93.
Screening O=C(CCc1ccc(-c2ccc(Cl)cc2)o1)NC1CCCC1 returned CDC25B-CDK2 inh 2.49 and TAR Tat displ 1.13.
`Cc1noc(C)c1CCNC(=O)c1nn(C)c2c1CS(=O)(=O)c1ccccc1-2` gave CDC25B-CDK2 inh -0.37 and TAR Tat displ 0.48.
`CCn1c(CC(C)C)nnc1SCc1cc(=O)c2c(C)ccc(C)c2[nH]1` gave TAR Tat displ 0.61.
Screening Cn1c(=O)c2sccc2n2c(CCC(=O)Nc3ccccc3)nnc12 returned CDC25B-CDK2 inh -0.6 and TAR Tat displ 0.95.
O=C(c1ccccc1Br)N1CCC(c2nc3ccccc3o2)CC1 was read as CDC25B-CDK2 inh 1.3 and TAR Tat displ -0.84.
Screening O=C(CSc1ncc(S(=O)(=O)c2ccccc2)c(=O)[nH]1)Nc1ccc(Br)cc1 returned CDC25B-CDK2 inh -1.89 and TAR Tat displ 0.67.
Cc1ccc2oc(=O)n(Cc3ccccc3OC(C)C)c2c1 was read as CDC25B-CDK2 inh 0.1 and TAR Tat displ 1.46.
`Cn1c(=O)c2c(nc(CN3CCN(Cc4ccccc4)CC3)n2Cc2ccc(Cl)cc2)n(C)c1=O` gave CDC25B-CDK2 inh -2.79 and TAR Tat displ 1.46.
CCc1nnc(NC(=O)C2CCCN(c3ncnc4c3nc3n4CCCCC3)C2)s1 (centres undefined) was read as TAR Tat displ -0.47.
Screening Cc1nc(NCc2ccccc2)c2c3c(sc2n1)CCCC3 returned CDC25B-CDK2 inh -1.67.
Screening Cc1n[nH]c(C)c1CCc1nc2c3ccccc3nc(=S)n2[nH]1 returned CDC25B-CDK2 inh -1.4.
`CCCCN(C)C(=O)Nc1cn(C)c(=O)c2ccccc12` gave TAR Tat displ 0.9.
CC1=CC(C)(C)N2C(=O)C(=O)c3cc(OC(=O)c4ccco4)cc1c32 was read as CDC25B-CDK2 inh -0.06 and TAR Tat displ 0.34.
Screening CC(C)CC(C(=O)NCc1ccco1)N1Cc2ccccc2C1=O (centres undefined) returned TAR Tat displ -0.03.
Screening CCCS(=O)(=O)c1ncc(Cl)c(C(=O)N(Cc2cccs2)C2CCS(=O)(=O)C2)n1 (centres undefined) returned CDC25B-CDK2 inh -0.99 and TAR Tat displ 1.89.
For COCCOC(=O)C1=C(C)NC(=O)NC1c1cccc(Br)c1 (centres undefined) the results were CDC25B-CDK2 inh -0.97.
Screening Cc1cc(C)c2c(n1)sc1c(Oc3ccc(Cl)cc3)ncnc12 returned CDC25B-CDK2 inh -1.26.
Screening CCCN1CCN(c2ncc3c(n2)CCN(Cc2ccc(Cl)cc2)C3)CC1 returned TAR Tat displ 2.27.
Screening Cc1nc2nc[nH]n2c(=O)c1Cc1ccccc1 returned CDC25B-CDK2 inh 0.1 and TAR Tat displ 1.73.
Screening CCCCSc1nnc2c(n1)OC=Nc1ccc(Br)cc1-2 returned CDC25B-CDK2 inh -0.32 and TAR Tat displ -1.41.
Screening Cc1nc(N2CCN(C)CC2)cc(N2CCN(S(=O)(=O)c3ccc(F)cc3)CC2)n1 returned CDC25B-CDK2 inh -1.24 and TAR Tat displ 0.35.
Screening Cc1nc(-c2ccc(S(=O)(=O)Nc3ccc(S(N)(=O)=O)cc3)cc2)co1 returned TAR Tat displ 1.14.
CC(C)(C)OC(=O)NCCNC(=O)Nc1ccccc1 was read as CDC25B-CDK2 inh -0.85.
For CCN1c2ccccc2-c2nc(SCC(=O)Nc3cc(F)ccc3F)ncc2S1(=O)=O the results were TAR Tat displ -0.42.
`C=CCOc1cccc(C(Nc2ccccn2)c2ccc3cccnc3c2O)c1` (centres undefined) gave CDC25B-CDK2 inh -0.32 and TAR Tat displ -0.21.
Screening COc1ccc(C(=O)OCc2cc(=O)n3cc(C)sc3n2)cc1OC returned TAR Tat displ 0.07.
`Cc1cc2c(cc1C)NC(C(F)(F)F)=CC(c1cccs1)=N2` gave CDC25B-CDK2 inh -1.13.
For CCCCN(CC)CCNC(=O)c1cn2c3c(ccc(Cl)c3c1=O)OCC2 the results were TAR Tat displ 1.03.
O=c1c2sccc2n(Cc2cc(=O)n3ccccc3n2)c(=O)n1-c1ccccc1 was read as CDC25B-CDK2 inh -0.23.
FC(F)(F)Oc1ccccc1-c1nnc(-c2ccncc2)o1 was read as CDC25B-CDK2 inh -0.74.
`CCC(C(=O)NC(C)c1ccccc1)n1nc(C)n2c(cc3sccc32)c1=O` (centres undefined) gave CDC25B-CDK2 inh -0.2 and TAR Tat displ -1.73.
Screening CC(C)CC(NC(=O)C1CCC(C)CC1)C(=O)NC1CCC(C)CC1 (centres undefined) returned CDC25B-CDK2 inh -0.52 and TAR Tat displ -1.83.
For Brc1ccc(C2CC(c3ccccc3)Nc3nnnn32)cc1 (centres undefined) the results were TAR Tat displ 2.08.
Screening CCNc1nc2c(ncn2[C@H]2C[C@H](O)[C@@H](CO)O2)c(=O)[nH]1 returned CDC25B-CDK2 inh -0.88.
O=C(CSc1nc2ncccc2c(=O)n1CC1CCCO1)Nc1ccc(Cl)cc1F (centres undefined) was read as CDC25B-CDK2 inh -2.01 and TAR Tat displ -0.49.
Screening CC(C)(C)OC(=O)C1C(=O)CC(C)(O)C(C(=O)OC(C)(C)C)C1c1ccc(Cl)cc1 (centres undefined) returned CDC25B-CDK2 inh -2.44 and TAR Tat displ 0.44.
For CC1CCCC(NC(=O)C2CCN(C(=O)N(C)C)CC2)C1C (centres undefined) the results were TAR Tat displ 1.06.
`O=C(Cn1ncc2c(=O)oc3ccccc3c21)Nc1ccc2c(c1)OCCO2` gave CDC25B-CDK2 inh -1.82.

Structural class, the compounds so far with a tert-butyl group
CC(C)(C)OC(=O)NCCNC(=O)Nc1ccccc1 was read as CDC25B-CDK2 inh -0.85.
Screening CC(C)(C)OC(=O)C1C(=O)CC(C)(O)C(C(=O)OC(C)(C)C)C1c1ccc(Cl)cc1 (centres undefined) returned CDC25B-CDK2 inh -2.44 and TAR Tat displ 0.44.

(continued)
C=CCNC(=O)c1ccc2c(c1)S(=O)(=O)N=C(C)N2CC(C)C was read as TAR Tat displ 1.49.
Screening CCCS(=O)(=O)c1nc(S(=O)(=O)c2ccc(C)cc2)c(NCc2ccc3c(c2)OCO3)s1 returned CDC25B-CDK2 inh -22.4 and TAR Tat displ -1.61.
COc1ccc(-c2cc(OC(=O)c3ccco3)cc3sc(=O)oc23)cc1 was read as CDC25B-CDK2 inh -0.51 and TAR Tat displ 2.19.
`Cn1cnc(S(=O)(=O)Nc2ccc3c(c2)C(=O)OC3)c1` gave CDC25B-CDK2 inh -0.83.
Cn1cnc(S(=O)(=O)Nc2ccc(-c3nc4ccccc4[nH]3)cc2)c1 was read as TAR Tat displ 0.72.
Screening CCOC(=O)C(O)(NC(=O)Nc1ccccc1)C(F)(F)F (centres undefined) returned CDC25B-CDK2 inh -0.53.
`COc1ccc(-c2nnc(SCCOc3ccccc3)o2)cc1` gave CDC25B-CDK2 inh -1.01 and TAR Tat displ 1.85.
For O=C1CC(c2nnc(-c3cccc(Cl)c3)o2)CN1c1ccccc1 (centres undefined) the results were CDC25B-CDK2 inh -2.78 and TAR Tat displ 0.35.
`CCC(=O)N1c2ccc(S(=O)(=O)NCCN3CCC(C)CC3)cc2CC1C` (centres undefined) gave TAR Tat displ 0.5.
CCn1c(SCC(N)=O)nnc1-c1oc2nc(-c3ccccc3)cc(-c3ccco3)c2c1N was read as CDC25B-CDK2 inh -1.47.
Screening O=C(CN1CCCCCC1)Nc1c2c(nc3c1CCC3)CCCC2 returned CDC25B-CDK2 inh 0.79.
For Cc1ccc(CS(=O)(=O)c2ncc(Cl)c(C(=O)Nc3nnc(C)s3)n2)cc1 the results were CDC25B-CDK2 inh 3.99 and TAR Tat displ 0.42.
Screening CN1c2ccsc2-c2[nH]ncc2S1(=O)=O returned CDC25B-CDK2 inh -1.05.
Cn1ccc2cc(S(=O)(=O)N3CCCC(C(=O)NC4CCCCC4)C3)ccc21 (centres undefined) was read as TAR Tat displ 0.59.
For Cc1nc2sc3c(NCCN4CCOCC4)ncnc3c2c2c1CCCC2 the results were CDC25B-CDK2 inh -2.11.
For Clc1ccc(COc2ccncc2)c(Cl)c1 the results were CDC25B-CDK2 inh -1.54.
CSc1ncc(C(=O)Nc2ccc(Br)cc2F)c(C)n1 was read as TAR Tat displ 1.35.
Screening O=S(=O)(c1ccc(Br)cc1)N1CCc2ccccc2C1 returned CDC25B-CDK2 inh 0.42.
For O=C(NCc1ccccc1)NCc1cccn1Cc1ccccc1 the results were TAR Tat displ 0.56.
O=C(c1cc(-c2ccc3c(c2)OCCO3)on1)N(Cc1ccccc1)C1CCS(=O)(=O)C1 (centres undefined) was read as CDC25B-CDK2 inh -1.75 and TAR Tat displ 1.43.
`CC(C)Cc1nn2cc(-c3ccc(Br)cc3)nc2s1` gave CDC25B-CDK2 inh -0.73 and TAR Tat displ 2.45.
COc1ccc(-c2nc3sccn3c2Nc2cc(C)ccc2C)cc1 was read as CDC25B-CDK2 inh -1.31 and TAR Tat displ -0.3.
Screening Cc1ccc(C)c(-n2nnc(-c3nc(-c4ccc(Br)cc4)no3)c2N)c1 returned TAR Tat displ -6.52.
For CC(C)(C)C(=O)/C(C#N)=C/c1cccs1 the results were CDC25B-CDK2 inh -0.95.
Cn1cc(Cl)c(C(=O)NC2CCCCC2)n1 was read as CDC25B-CDK2 inh -0.52 and TAR Tat displ 0.4.
Cc1ccc(NC2SC(=O)NC2=O)c(C)c1 (centres undefined) was read as CDC25B-CDK2 inh -1 and TAR Tat displ 2.38.
